High-throughput results from PubChem BioAssay.
LASV entry inh – qHTS for Inhibitors of binding or entry into cells for Lassa Virus | Lassa virus pseudotype entry inhibition, cell reporter; control for the full effect not named in the record | Potency, µM (titrated, usually from 37.9 µM), for inactives: top-dose activity change, negative = inhibition, actives largely listed as inhibitors | hit rate 1.2% among 300,000; active means well fitted inhibition curve with a large enough effect; inconclusive means small, poorly fitted or top-dose-only effect, or effect the other way; inactive means flat fitted curve, though single readings scatter; tested in HEK293 cells; also: % is scaled to controls: 0 for no effect and ±100 for the full control effect; nearly all actives have a fitted effect of over 50% in size; luciferase read-out
SARS PLP yeast – qHTS of Yeast-based Assay for SARS-CoV PLP | Potency, µM (doses to about 32.9 µM), for inactives: at the top dose activity, positive = growth rescue | hit rate 0.19% among 330,000 | S. cerevisiae expressing SARS-CoV PLpro, growth rescue; control for the full effect not named in the record; active means well fitted rising curve with a large enough effect; inconclusive means small, poorly fitted or top-dose-only effect; inactive means no such curve, though single readings can be large or run the other way; also: 0% is about no effect; nearly all actives have a fitted effect of over 55% in size; growth read by luminescence after 48 h
Cruzain inh Det – qHTS Assay for Promiscuous and Specific Inhibitors of Cruzain (with detergent); Cruzipain (Trypanosoma cruzi), P25779; Potency, µM, for the others: max response, negative = inhibition, hits mostly inhibitors; purified cruzain, Z-FR-AMC fluorescence, 0.01% Triton; hit rate 0.43% among 200,000;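 also: plate controls were neutral wells for no effect and buffer without enzyme for full effect; nearly all actives have a fitted effect of over 40% in size; top concentration of the series not given in the record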
Target sequence (P25779 123-467 limits assumed): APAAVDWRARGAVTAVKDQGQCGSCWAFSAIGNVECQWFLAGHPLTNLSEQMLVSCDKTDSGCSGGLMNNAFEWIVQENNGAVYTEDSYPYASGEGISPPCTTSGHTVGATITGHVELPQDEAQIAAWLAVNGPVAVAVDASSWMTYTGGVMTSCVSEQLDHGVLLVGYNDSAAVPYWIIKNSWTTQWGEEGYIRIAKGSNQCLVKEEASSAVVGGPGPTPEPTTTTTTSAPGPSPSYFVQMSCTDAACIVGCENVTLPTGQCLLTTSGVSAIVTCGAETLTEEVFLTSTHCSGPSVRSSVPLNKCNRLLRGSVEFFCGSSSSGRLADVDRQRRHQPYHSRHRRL
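Enzyme 1.5 nM, Z-FR-AMC 2 uM, NaOAc 100 mM pH 5.5, DTT 5 mM, Triton X-100 0.01%; 15 min RT compound preincubation; kinetic ex360/em450, 60 s delta.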
2A StopGo – High Throughput Screening for Foot and Mouth Disease Virus Antivirals. hit rate 1.2% among 410,000. Potency, µM (titrated, usually from 57.9 µM), for the others: top-dose signal change, negative = less light. human cells with a luciferase reporter of 2A StopGo recoding; control for the full effect not named in the record; active = well fitted falling curve with a large enough effect; inconclusive = small, poorly fitted or top-dose-only effect; inactive = no such curve, though single readings can be large or run the other way; tested in HEK293T cells; also: % is scaled to controls: 0 for no effect and ±100 for the full control effect; nearly all actives have a fitted effect of over 45% in size; luciferase light after 4 h
RE007 growth inh – qHTS Assay for Inhibitors of the HIV-1 protein Vpr | hit rate 0.21% among 360,000 | Potency, µM (titrated, usually from 92.2 µM), without a hit: at the top dose activity change, negative = less growth | S. pombe RE007 Vpr strain, BacTiter-Glo ATP luminescence, 24 h; control for the full effect not named in the record; active = well fitted falling curve with a large enough effect; inconclusive = small, poorly fitted or top-dose-only effect; inactive = no such curve, though single readings can be large or run the other way;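 also: % is scaled to controls: 0 for no effect and ±100 for the full control effect; nearly all actives have a fitted effect of over 50% in size; the assay follows cell death caused by Vpr and the record does not say whether a fall means rescue or toxicity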
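Fission yeast RE007 carrying one integrated HIV-1 vpr copy, seeded at OD 0.01 in PMG+AL medium with 23 nL pinned compound. Grown 24 h at 30 degrees; viability read by BacTiter-Glo luminescence after 5 min.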
MARV entry inh – qHTS for inhibitors of binding or entry into cells for Marburg Virus; Marburg virus pseudotyped entry inhibition, cell reporter; control for the full effect not named in the record; about a third of the inactives were read at about 46 µM; Potency, µM (titrated, usually from 37.8 µM), for the others: top-dose activity change, negative = inhibition, usual class: inhibitors; hit rate 1.8% among 300,000; active = well fitted inhibition curve with a large enough effect; inconclusive = small, poorly fitted or top-dose-only effect, or effect the other way; inactive = flat fitted curve, though single readings scatter; tested in HEK293 cells; about a fifth of its hits are not listed in these tables; also: % is scaled to controls: 0 for no effect and ±100 for the full control effect; luciferase read-out
NS1 function inh – qHTS Assay for Inhibitors of Influenza NS1 Protein Function. S. cerevisiae slowed by influenza A NS1, growth recovery by OD600. Potency, µM (titrated, usually from 46.1 µM), for inactives: at the highest dose activity, positive = more growth. hit rate 0.4% among 270,000; active means well fitted rising curve with a large enough effect; inconclusive means small, poorly fitted or top-dose-only effect; inactive means no such curve, though single readings can be large or run the other way; also: nearly all actives have a fitted effect of over 50% in size
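OD600 was taken as the measure of yeast growth restored by compound in an NS1-expressing S. cerevisiae strain. Cells had been washed out of glucose medium and diluted 1:100 into galactose -URA medium, pH 6.0.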
Cruzain noTriton – qHTS Assay for Promiscuous and Specific Inhibitors of Cruzain (without detergent) | purified cruzain, Z-FR-AMC fluorescence, no detergent | Potency, µM, for the others: max response, negative = inhibition, actives largely listed as inhibitors | AID 1476, 2009 | hit rate 2.3% among 200,000;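 also: plate controls were enzyme without inhibitor for no effect and buffer without enzyme for full effect; nearly all actives have a fitted effect of over 40% in size; top concentration of the series not given in the record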
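Purified cruzain at 1.5 nM, pre-incubated 15 min with compound at room temperature in 100 mM sodium acetate pH 5.5, 5 mM DTT, 0.00005% Triton X-100. Reaction started with 2 uM Z-FR-AMC; AMC fluorescence increase over 60 s gives rate.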
The depositor's hits bear a star; ? = inconclusive; . = not tested or not shown; & = joins results of further samples; [ ] = dose if it differs, or a comment. Unless noted, calls follow the shape of the dose curve; as a rule, active = well fitted curve in the direction sought with a large enough effect; inconclusive = small, poorly fitted or top-dose-only effect, or another doubt; inactive = no such curve, though single readings can be large; an effect the other way counts as inactive or inconclusive. Potency is read from the fitted curve at half-maximal effect. Not a hit list, and some 4.8% of all compounds hit somewhere here.

SMILES	LASV entry inh	SARS PLP yeast	Cruzain inh Det	2A StopGo	RE007 growth inh	MARV entry inh	NS1 function inh	Cruzain noTriton
O=C(C1CCCCC1)N1CCC(n2nnc3ccccc32)CC1	1%	-1%	-0.4%	-22%	4%	-11%	-8%	-17%
COc1ccccc1-c1nnc(SCC(=O)N2CCOCC2)o1	17%	-1%	-0.9%	33%[activator]	11%	109%	?	-3%
Cc1ccc(S(=O)(=O)NC(C(=O)N2CCOCCOCCOCCOCC2)C(C)C)cc1 (stereo not given)	-3%[46.1 µM]	-1%	.	-5%	9%	-2%[46.1 µM]	-1%	.
Cc1cccc(NS(=O)(=O)c2cc(C(=O)NCc3ccccn3)ccc2C)c1	?	0%	.	67%[activator]	-7%	-20%	-9%	.
COc1ccccc1CN1CCNC(=O)C1CC(=O)NCCCn1cccn1 (stereo not given)	-6%	1%	.	-8%	4%	20%[46.1 µM]	1%	.
CCc1ccc(NC(=O)[C@H](C)NC(=O)C2CCN(C(=O)[C@@H](N)CC(C)C)CC2)cc1	.	0%	.	-2%	3%	.	4%	.
CC(Sc1nccn1C)C(=O)Nc1ccc(C(N)=O)cc1 (stereo not given)	?	0%	.	-2%	10%	?	.	.
CCOc1ccc(C(CC(=O)O)NC(=O)C23CC4CC(CC(C4)C2)C3)cc1OC (stereo not given)	10%	3%	.	9%	-7%	?	.	.
CCCN(CC#CCO)CCC	13%	1%	1.4%	-14%	95%	?	-4%	-2%
Cc1cc2ccccc2n1-c1ccc(C(=O)N2CCC(C(=O)NCc3ccc(F)cc3)CC2)s1	?	.	-2.3%	-26%	.	.	.	9%
CCOc1ccc(NC(=S)NCc2ccc3[nH]c(C)cc3c2)cc1	2.9µM*	3%	.	26%	5%	2%	.	.
CC1(C)CC(N=C2C([N+](=O)[O-])=CC=C3C2=NC2(CCCCC2)N3O)CC(C)(C)N1	-14%	0%	.	-11%	-3%	-3%	-3%	.
Cc1ccc(NC(=O)c2cc(C)no2)cc1	.	-3%	.	44%[activator]	0%	.	-5%	.
CC(=O)NC(Cc1ccc(F)c(F)c1)C(=O)NC1CCN(C(=O)c2ccc(C)cc2)CC1 (stereo not given)	.	1%	.	-11%	6%	.	6%	.
CCOC(=O)N1CCC(NC(=O)CSCc2nc(-c3ccc(OCC)cc3)oc2C)CC1	.	-2%	.	?	9%	.	-24%	.
O=C(NCc1cccnc1)c1ccccc1Br	13%	-1%	2.1%	8%	8%	-8%	-6%	-9%
O=C(CSc1ncnc2c1oc1ccccc12)Nc1ccc2c(c1)OCCO2	?	.	.	10%	-4%	-26%&-26%	11%	.
O=C(COC(=O)c1ccccc1S(=O)(=O)N1CCCCC1)NCC(F)(F)F	11%	8%	-2.3%	25%	4%	-21%	0%	5%
CSc1nnc(SCC2=NNC(=O)SC2)s1	0%	9%	-1.7%	17%	-2%	-12%	21%	5%
Cc1ccc2c(c1)SC1=NC(c3ccccc3)(C(F)(F)F)NC(=O)N12 (stereo not given)	.	0%	0.9%	.	.	2%	8%	?
CCCCSCCCNC(=O)c1cn(C)c2ccc(S(=O)(=O)N3CCCCC3)cc2c1=O	25%[46.1 µM]	.	-2.5%	6%	.	17%[46.1 µM]	.	3%
COc1ccc(/C=C(\NC(=O)c2cccs2)C(=O)NN)cc1OC	-8%	-3%	.	1%	-10%	?	12%	.
CC(C)(C)CC(=O)NCCc1csc(-c2ccccc2)n1	.	-9%	.	-3%	-2%	.	-78%	.
Cc1c(NC(=O)OCCNC(=O)Nc2ccccc2)sc(=S)n1C	6%	3%	-0.5%	-7%	-18%	7%	-6%	7%
CCc1ccccc1NS(=O)(=O)c1ccc2c(c1)C(C)(C)C(=O)N2C	.	6%	.	9%	10%	.	6%	.
SMILES	LASV entry inh	SARS PLP yeast	Cruzain inh Det	2A StopGo	RE007 growth inh	MARV entry inh	NS1 function inh	Cruzain noTriton
Cc1cccc(N(Cc2cc3ccccc3[nH]c2=O)C(=O)c2ccco2)c1C	21%	2%	0.1%	-14%	25%	12%	11%	-8%
O=C1CNC(=O)N1c1ccc(Cl)cc1	21%[46.1 µM]	-2%	.	-15%	3%	?	3%	.
CCCC(=O)Nc1ccc(Cl)c(NC(=S)NC(=O)C(C)C)c1	.	22%	.	-22%	-1%	.	3%	.
CCOc1ccc2oc(=O)cc(CN3CCN(c4ccc(Cl)cc4)CC3)c2c1	?	.	-1.8%	-12%	.	-24%[46.1 µM]	.	5%
COc1ccccc1NC(=O)CN1C(=O)COc2ccc(S(=O)(=O)N3CCCCCC3)cc21	-28%[46.1 µM]	-4%	.	37%	-10%	-23%[46.1 µM]	8%	.
Cc1ccc(CCNC(=O)c2cc3cc4cc(C)ccc4nc3s2)cc1	4%[46.1 µM]	.	0.2%	3%	.	.	.	8%
COc1ccc(CNC(=O)c2ccccc2SC)cc1	12%	-4%	4.4%	0%	-2%	-5%[46.1 µM]	-6%	?
Cc1ccccc1CNc1ccc(C(CC(N)=O)NC(=O)c2ccccc2)cc1[N+](=O)[O-] (stereo not given)	.	4%	.	-13%	1%	.	-12%	.
OC(CN1CCCCC1)CN1CCCCC1	-7%	-5%	-2.4%	-16%	-11%	?	-9%	-5%
Cc1ccc(S(=O)(=O)NC(=O)NC(C)(C)C)cc1	14%	2%	3.6%	26%	-1%	-2%	3%	-5%
COc1ccc(/C=N/NC(=O)c2ccco2)cc1Cn1nc(C)cc1C	10%	5%	-3.8%	-6%	3%	-16%	3%	-5%
Cc1cccc(C)c1NC(=O)CNC(=O)C(C)N1CCCCC1 (stereo not given)	13%	4%	.	-13%	19%	15%	.	.
O=C(c1ccc(Cl)c(S(=O)(=O)N2CCCCC2)c1)N1CCCCCC1	2%	-2%	.	-2%	-1%	-23%	-18%	.
CC(C)C(OC(=O)c1cccs1)C(=O)NCc1ccccc1 (stereo not given)	.	-1%	.	-15%	-10%	.	-5%	.
COc1ccc(S(=O)(=O)N(C)c2ccc(C(=O)NCc3ccccn3)cc2)cc1OC	12%	-5%	.	0%	-20%	-5%	-1%	.
CC(C)(C)NC(=O)CN(C(=O)CCC(=O)Nc1nccs1)c1ccc2c(c1)OCCO2	-2%	-1%	.	14%	4%	-3%[46.1 µM]	-2%	.
COC(=O)c1cc(CSc2nnc(-c3ccccc3)c(-c3ccccc3)n2)oc1C	?	-11%	-3.0%	-16%	?	?	8%	?
COc1ccccc1-c1nc2c3c(-c4ccccc4)c(-c4ccccc4)oc3ncn2n1	11%[46.1 µM]	.	1.2%	-10%	.	.	.	15%
Cc1ccc(C2C(C#N)=C(N)OC3=C2C(=O)CCC3)s1 (stereo not given)	6%[46.1 µM]	0%	.	8%	6%	5%[46.1 µM]	5%	.
COc1ccc(OC)c(N/C(=N/c2nc(C)cc(C)n2)NC(C)=O)c1	.	0%	.	-16%	-12%	.	3%	.
Clc1cccc(CSc2nnc([C@@H]3CCCN3)o2)c1	12%	-1%	6.6%	33%[activator]	8%	13%	-6%	-7%
O=[N+]([O-])c1ccc2[nH]c(=S)[nH]c2c1	-1%[46.1 µM]	.	.	1%	-10%	-20%[46.1 µM]	.	.
COc1ccc(/C=N/N2CCOCC2)cc1OCc1ccccc1	4%	0%	.	-4%	-8%	-3%[46.1 µM]	.	.
O=C(c1ccc(CNS(=O)(=O)c2cccc(Cl)c2)cc1)N1CCCCC1	-12%[46.1 µM]	-1%	.	-24%	7%	-28%[46.1 µM]	13%	.
CCOC(=O)N1CCC(N2Cc3cccc(C(=O)Nc4ccc(OCC)cc4)c3C2=O)CC1	-2%[46.1 µM]	8%	.	-11%	10%	10%[46.1 µM]	6%	.
SMILES	LASV entry inh	SARS PLP yeast	Cruzain inh Det	2A StopGo	RE007 growth inh	MARV entry inh	NS1 function inh	Cruzain noTriton
C/C(=N/NC(=O)c1ccncc1)c1ccc2c(c1)OCO2	.	1%	.	13%	0%	.	-2%	.
Cc1c(Cl)cccc1NC(=O)CN1CCC(C(O)(c2ccccc2)c2ccccc2)CC1	?	-2%	-2.6%	?	4%	?	4%	-4%
COc1ccc(CCn2c3c(c(=O)[nH]c2=O)C(NC(=O)c2ccccc2OC)(C(F)(F)F)C(=O)N3)cc1OC (stereo not given)	-19%[46.1 µM]	.	-1.0%	-7%	.	10%[46.1 µM]	.	-1%
COc1cc(OC)c(NC(C)C(=O)NCc2ccccc2)cc1Cl (stereo not given)	-3%	-11%	.	4%	-12%	-17%[46.1 µM]	.	.
S=c1[nH]nc(-c2cccnc2)n1/N=C/C(Cl)=C\c1ccccc1	-2%	3%	-3.6%	-1%	-1%	-1%	21%	?
Cc1ccccc1C(=O)Nc1ccc(-c2nnc(SC(C)C(=O)O)n2C)cc1 (stereo not given)	.	0%	.	-3%	7%	.	2%	.
CCCCCCCCCCCCOC1OC(CO)C(O)C(O)C1NC(C)=O (stereo not given)	0%	1%	-0.6%	-5%	7%	6%	2%	?
CCOC(=O)c1sc(N)c(C#N)c1COC(=O)C1=COCCO1	4%	3%	.	-7%	8%	22%	.	.
CC(C)(C)c1nc2ccccc2[nH]1	-12%	9%	4.1%	-7%	-2%	17%[46.1 µM]	3%	4%
Cc1ccccc1OCCCC(=O)Nc1ccc(N2CCOCC2)cc1	11%	1%	-11%	.	7%	-6%	3%	3%
CCOc1ccc(-c2nc(CSCC(=O)NCCCN3CCCC3=O)c(C)o2)cc1	-1%[46.1 µM]	4%	.	-14%	-6%	27%[46.1 µM]	0%	.
O=C1CCCc2nn(-c3ccccc3)c(-c3ccncc3)c21	1%	9%	2.9%	0%	13%	?	?	16%
COc1ccc(C(=O)NCCCn2ccnc2)cc1	26%	-4%	3.7%	0%	7%	-24%	-9%	-5%
Cc1cc(NC(=O)CSc2nnc(-c3ccccc3)o2)no1	0%[46.1 µM]	0%	.	-3%	1%	7%[46.1 µM]	.	.
O=C(Cn1ncc(Cl)c(Cl)c1=O)N1CCOCC1	?	2%	.	0%	5%	?	.	.
